SARS PLP yeast: qHTS of Yeast-based Assay for SARS-CoV PLP; Potency, µM (highest dose often 32.9 µM), for inactives: at the top dose activity, positive = growth rescue; S. cerevisiae expressing SARS-CoV PLpro, growth rescue; control for the full effect not named in the record; 0.19% of 330,000 active; AID 485353, 2010; active means well fitted rising curve with a large enough effect; inconclusive means small, poorly fitted or top-dose-only effect; inactive means no such curve, though single readings can be large or run the other way; note: 0% is about no effect; nearly all actives have a fitted effect of over 55% in size; growth read by luminescence after 48 h
The depositor's hits bear a star. Potency is the fitted concentration of half-maximal effect. This is a subset; rates above refer to the full screens.

`Cc1nc(N2CCCCC2)sc1C=O` gave SARS PLP yeast 0.1%.
For CN(Cc1ccco1)c1ncnc2ccc(-c3ccc4c(c3)OCCO4)cc12 the results were SARS PLP yeast -7.7%.
`COc1ccc(OC)c(S(=O)(=O)NC(N)=NCCc2ccccc2OC)c1` gave SARS PLP yeast -2.6%.
`O=C(NCC#CCSc1nnc(-c2cccc3ccccc23)o1)c1cccs1` gave SARS PLP yeast inconclusive.
O=c1c(-c2ccccc2)c1-c1ccccc1 was read as SARS PLP yeast -24.0%.
CCOC(=O)c1c(/C=N/Nc2ccccc2)c2sc(C)cc2n1C was read as SARS PLP yeast -15.9%.
`CC1=NN(c2ccccc2)C(=O)C1N=Nc1ccc(C)cc1` (stereo not drawn) gave SARS PLP yeast 0.5%.
Screening Cc1ncc(CO)c(/C=N/NC(=O)c2cc(O)c(O)c(O)c2)c1O returned SARS PLP yeast inconclusive.
`Cc1sc2nc(CSc3nc4ccccc4s3)[nH]c(=O)c2c1C` gave SARS PLP yeast -2.8%.
Screening O=C(NCCCN1CCCC1)c1ccc(Cn2c(=S)[nH]c3ccc(Br)cc3c2=O)cc1 returned SARS PLP yeast -1.6%.
O=C(O[C@@H]1Cc2c(O)cc(O)cc2O[C@@H]1c1cc(O)c(O)c(O)c1)c1cc(O)c(O)c(O)c1 was read as SARS PLP yeast inconclusive.
Screening COc1ccc(Nc2cc(C(=O)NCc3cccnc3)c3ccccc3n2)c(OC)c1 returned SARS PLP yeast 0.4%.
Screening COC(=O)c1ccc(NC(=O)c2ccc3c(c2)NC(=O)C2CCCN32)cc1 (stereo not drawn) returned SARS PLP yeast 4.0%.
For Brc1ccc(/C=N/Nc2nncc(-c3ccccc3)n2)o1 the results were SARS PLP yeast 1.4%.
Screening O=C(Nc1cc(Cl)cc(Cl)c1)C(NCCCO)c1ccccc1 (stereo not drawn) returned SARS PLP yeast -0.2%.
For COc1ccccc1Cn1c(SCC(=O)C(C)(C)C)nc2cc(C(=O)N3CCC4(CC3)OCCO4)ccc2c1=O the results were SARS PLP yeast -0.1%.
Cc1ccc2c(=O)n3c(nc2c1)C(Cc1ccc(O)cc1)NC(=O)c1ccc(Cl)cc1-3 (stereo not drawn) was read as SARS PLP yeast -1.6%.
N/C(Cc1cccc2ccccc12)=N\OC(=O)c1ccc(Br)o1 was read as SARS PLP yeast -6.2%.
O=c1c2c(nc3nc(NCc4ccccc4Cl)[nH]n13)CCC2 was read as SARS PLP yeast -9.2%.
COc1ccc2oc(=O)c(C(=O)OCC(=O)c3ccc([N+](=O)[O-])cc3)cc2c1 was read as SARS PLP yeast 5.9%.
`Cc1ccc2c(c1)-n1c(nc3cc(F)ccc3c1=O)C(Cc1ccc(O)cc1)NC2=O` (stereo not drawn) gave SARS PLP yeast -1.1%.
`CN1C(=O)CN=C(c2ccccc2)c2cc([N+](=O)[O-])ccc21` gave SARS PLP yeast 3.3%.
`CC(NC(=O)c1cc(=O)[nH]c2ccc(Br)cc12)c1ccccc1` (stereo not drawn) gave SARS PLP yeast 0.0%.
CC(=O)OC[C@]12CC[C@H]3[C@@](C)(CC[C@H]4C(C)(C)CCC[C@]34C)[C@@H]1C[C@@H](C1=CC(=O)O[C@@H]1OC(C)=O)O2 was read as SARS PLP yeast -22.1%.
Screening CC(C)[C@]1(c2ccccc2)ON(c2ccccc2C(F)(F)F)C1=O returned SARS PLP yeast 2.6%.
Screening O=C(O)c1ccc2c(c1)C(=O)N([C@H](Cc1ccc(O)cc1)C(=O)O)C2=O returned SARS PLP yeast -20.4%.
Screening O=C1NC(Cc2ccc(O)cc2)c2nc3ccc(Cl)cc3c(=O)n2-c2ccccc21 (stereo not drawn) returned SARS PLP yeast -6.6%.
COC(=O)c1ccc(CSc2ccc3nnc(-c4ccc(OC)cc4)n3n2)o1 was read as SARS PLP yeast 0.4%.
`COc1cccc(CC(NC(C)=O)C(=O)NC2CCN(c3ncccc3[N+](=O)[O-])CC2)c1` (stereo not drawn) gave SARS PLP yeast 0.8%.
`CC(=O)c1ccc(N2CCN(CC(=O)Nc3ccc(N4CCOCC4)cc3)CC2)cc1` gave SARS PLP yeast 0.3%.
For COc1ccccc1C1=Nn2c(COc3ccccc3)nnc2SC1 the results were SARS PLP yeast -0.9%.
CC(C)C(C)NC(=O)COC(=O)c1cc(S(=O)(=O)N(C)C)ccc1N1CCCC1 (stereo not drawn) was read as SARS PLP yeast -0.2%.
For Cc1ccc2c(c1)-n1c(nc3ccccc3c1=O)C(CC(C)C)NC2=O (stereo not drawn) the results were SARS PLP yeast 7.9%.
CO[C@H]1C=CO[C@@]2(C)Oc3c(C)c(O)c4c(O)c(c5c(c4c3C2=O)NC2(CCN(CC(C)C)CC2)N=5)=NC(=O)C(C)=CC=C[C@H](C)[C@H](O)[C@@H](C)[C@@H](O)[C@@H](C)[C@H](OC(C)=O)[C@@H]1C was read as SARS PLP yeast -4.5%.
O=C(OCCC1Oc2cccnc2NC1=O)c1ccc([N+](=O)[O-])cc1 (stereo not drawn) was read as SARS PLP yeast 1.1%.
`COc1cc2c(cc1OC)C(Cc1ccc(O)c(Oc3ccc(C[C@H]4c5cc(OC)c(OC)cc5CCN4C)cc3)c1)N(C)CC2` (stereo partly drawn) gave SARS PLP yeast 3.9%.
`O=S(=O)(c1ccc(N2CCN(Cc3ccc4c(c3)OCO4)CC2)nc1)N1CCOCC1` gave SARS PLP yeast 6.0%.
Screening C[C@@H]1CN(c2c(F)c(N)c3c(=O)c(C(=O)O)cn(C4CC4)c3c2F)C[C@H](C)N1 returned SARS PLP yeast 0.3%.
For Cc1cc(C(=O)OCC(=O)Nc2cc(S(=O)(=O)N(C)C)ccc2C)c(C)o1 the results were SARS PLP yeast 6.7%.
Screening COc1ccc(C(=O)NCC(=O)OCn2nnc3ccccc3c2=O)cc1OC returned SARS PLP yeast -2.2%.
Screening O=C(O)c1ccc2c(c1)C(=O)N(CCc1ccc(O)cc1)C2=O returned SARS PLP yeast -3.8%.
Screening NC[C@@H]1O[C@H](O[C@H]2[C@@H](O)[C@H](O[C@@H]3[C@@H](O)[C@H](N)C[C@H](N)[C@H]3O[C@H]3O[C@H](CO)[C@@H](O)[C@H](O)[C@H]3N)O[C@@H]2CO)[C@H](N)[C@@H](O)[C@@H]1O returned SARS PLP yeast 0.7%.
Cc1ccnc(NC(=O)CCCOc2ccc(Cl)cc2C)c1 was read as SARS PLP yeast -1.3%.
For COc1ccc(/C(C)=N\NC(=O)c2ccc3c(c2)OCO3)cc1OC the results were SARS PLP yeast 2.6%.
COc1ccc(/C=N/n2cnc3c([nH]c4ccccc43)c2=O)cc1COc1ccccn1 was read as SARS PLP yeast -0.6%.
COc1ccc(N2C(=O)N(Cc3cccc(F)c3)c3ccccc3S2(=O)=O)cc1 was read as SARS PLP yeast -9.5%.
For COc1ccc(C)cc1NC(=O)c1ccc(-c2ccc(C(C)=O)cc2)o1 the results were SARS PLP yeast -0.5%.
Screening O=C(O)c1ccc2c(c1)C(=O)N([C@H](Cc1ccccc1)C(=O)O)C2=O returned SARS PLP yeast 4.0%.
O=C1NC(Cc2ccccc2)c2nc3cc(F)ccc3c(=O)n2-c2cc(Cl)ccc21 (stereo not drawn) was read as SARS PLP yeast 1.5%.
Cc1cccc(CNc2ncnc3ccc(-c4cccc(Cl)c4)cc23)c1 was read as SARS PLP yeast 0.3%.
`Cc1noc(C)c1CSCC(=O)Nc1ccccc1N1CCCCC1` gave SARS PLP yeast -4.0%.
COc1ccccc1/C=C/C=N/NC(=O)c1ccc2nc[nH]c2c1 was read as SARS PLP yeast 7.1%.
Screening Cc1cc(C)c(S(=O)(=O)c2ccccc2Cl)c(Cl)n1 returned SARS PLP yeast 2.4%.
FC(F)Oc1ccc(/C=N/N2CCCCC2)c(OC(F)F)c1 was read as SARS PLP yeast 1.1%.
`CCOC(=O)N1CCN(C(=O)CSc2ccc(-c3cccnc3)nn2)CC1` gave SARS PLP yeast -4.7%.
Screening Cc1ccccc1NC(=O)COC(=O)c1cc(=O)c2ccccc2o1 returned SARS PLP yeast -2.0%.
Screening Cc1ccccc1C(=O)NNC(=O)Nc1ccccc1 returned SARS PLP yeast 1.6%.
CC(C)OC(=O)CCC/C=C\C[C@@H]1[C@@H](CC[C@@H](O)CCc2ccccc2)[C@H](O)C[C@@H]1O was read as SARS PLP yeast -0.2%.
For Cn1c(SCCC#N)nnc1-c1ccc(F)cc1 the results were SARS PLP yeast -4.6%.
`O=C(O)c1ccc(Cn2c(SCc3cc(=O)n4cc(Br)ccc4n3)nc3ccsc3c2=O)cc1` gave SARS PLP yeast 2.0%.
`CC(C)OCCCNC(=O)C(NS(=O)(=O)c1ccc2c(c1)c(=O)n(C)c(=O)n2C)c1ccccc1` (stereo not drawn) gave SARS PLP yeast 0.3%.
CN1CCN(C(CC(=O)Nc2cccc(O)c2)C(=O)O)CC1 (stereo not drawn) was read as SARS PLP yeast 4.7%.
`C[C@]12CCC3C(CC[C@H]4C[C@@H](O)CC[C@]34C)C1CC[C@@]2(O)C(F)(F)F` (stereo partly drawn) gave SARS PLP yeast -4.0%.
For COc1cc(C)c(Cc2cnc(N)nc2N)cc1OC the results were SARS PLP yeast 0.9%.
For C#CCOCCOCCOCCNc1nc(N2CCN(C(=O)CCCCCCCCCCNC(=O)[C@H]([C@@H](C)CC)n3cc(CCCCCN)nn3)CC2)nc(N2CCN(C(=O)CCCCCCCCCCNC(=O)[C@H]([C@@H](C)CC)n3cc(CCCCN=C(N)N)nn3)CC2)n1 the results were SARS PLP yeast 8.7%.
COc1ccc(CNC(=O)CSc2nc3[nH]ncc3c(=O)n2-c2ccccc2Br)cc1 was read as SARS PLP yeast 0.3%.
For COc1cc(C(=O)NC2CCCNC2)cc(OC)c1OC (stereo not drawn) the results were SARS PLP yeast 8.7%.
`Cc1ccc(C)c(NC(=O)c2ccccc2C(=O)c2ccccc2)c1` gave SARS PLP yeast -4.8%.
`Oc1ccc(COCc2ccc(F)cc2)c2cccnc12` gave SARS PLP yeast 0.7%.
For N#Cc1ccsc1NC(=O)CN1C(=O)NC2(CCCC2)C1=O the results were SARS PLP yeast 1.0%.
`CC(NC(=O)C1CCC(CNS(=O)(=O)c2ccccc2)CC1)c1ccc2c(c1)OCCO2` (stereo not drawn) gave SARS PLP yeast 0.5%.
For COc1ccccc1/C=C1\SC(=S)N(CC(=O)Nc2nnc(C)s2)C1=O the results were SARS PLP yeast 1.2%.

Some of these compounds in order of SMILES length, descending.
Screening COc1ccc(Nc2cc(C(=O)NCc3cccnc3)c3ccccc3n2)c(OC)c1 returned SARS PLP yeast 0.4%.
COC(=O)c1ccc(CSc2ccc3nnc(-c4ccc(OC)cc4)n3n2)o1 was read as SARS PLP yeast 0.4%.
CN1CCN(C(CC(=O)Nc2cccc(O)c2)C(=O)O)CC1 (stereo not drawn) was read as SARS PLP yeast 4.7%.

Remaining list, next part.
For CN(C)S(=O)(=O)c1cc(NC(=O)c2cc(=O)[nH]c3ccccc23)ccc1Cl the results were SARS PLP yeast -1.9%.
Screening Cc1ccc2c(c1)-n1c(nc3cc(Cl)ccc3c1=O)C(CC(C)C)NC2=O (stereo not drawn) returned SARS PLP yeast 5.5%.
Screening CCCCCCCC(=O)N/N=C(\C)c1ccc(N)cc1 returned SARS PLP yeast -6.9%.
`COc1cc(/C=N\Nc2ccc([N+](=O)[O-])cn2)ccc1OCC(=O)O` gave SARS PLP yeast 0.1%.
For C[C@@H](c1ncncc1F)[C@](O)(Cn1cncn1)c1ccc(F)cc1F the results were SARS PLP yeast -19.4%.
For O=C(O)c1ccc(S(=O)(=O)N[C@H](Cc2ccc([N+](=O)[O-])cc2)C(=O)O)cc1 the results were SARS PLP yeast 2.24µM*.
Nc1c(C(=O)c2ccco2)oc2ccccc12 was read as SARS PLP yeast -0.7%.
`Nc1nnc(-c2cc3c(ccc4ccccc43)oc2=O)s1` gave SARS PLP yeast -1.0%.
`CCC(=O)N1C(=O)C2(Nc3ccccc3N2)c2ccccc21` gave SARS PLP yeast 3.3%.
`O=C1NC(Cc2ccccc2)c2nc3ccccc3c(=O)n2-c2cc(Cl)ccc21` (stereo not drawn) gave SARS PLP yeast -26.6%.
Cc1ccc(CN2C(=O)N/C(=C/c3ccc4c(c3)n(C)c(=O)n4C)C2=O)cc1 was read as SARS PLP yeast -0.3%.
Screening CN1CCOc2ccc(S(=O)(=O)N3CCN(S(=O)(=O)c4c(F)cccc4F)CC3)cc21 returned SARS PLP yeast 2.6%.

Grouped by structure: those above with a furan ring, fused or not (7)
For CN(Cc1ccco1)c1ncnc2ccc(-c3ccc4c(c3)OCCO4)cc12 the results were SARS PLP yeast -7.7%.
For Brc1ccc(/C=N/Nc2nncc(-c3ccccc3)n2)o1 the results were SARS PLP yeast 1.4%.
N/C(Cc1cccc2ccccc12)=N\OC(=O)c1ccc(Br)o1 was read as SARS PLP yeast -6.2%.
COC(=O)c1ccc(CSc2ccc3nnc(-c4ccc(OC)cc4)n3n2)o1 was read as SARS PLP yeast 0.4%.
For Cc1cc(C(=O)OCC(=O)Nc2cc(S(=O)(=O)N(C)C)ccc2C)c(C)o1 the results were SARS PLP yeast 6.7%.
For COc1ccc(C)cc1NC(=O)c1ccc(-c2ccc(C(C)=O)cc2)o1 the results were SARS PLP yeast -0.5%.
Nc1c(C(=O)c2ccco2)oc2ccccc12 was read as SARS PLP yeast -0.7%.

(listing goes on)
Screening CCCCNS(=O)(=O)c1ccc2nc(-c3cccnc3)cc(C(=O)NCCCN(CC)CC)c2c1 returned SARS PLP yeast 0.0%.
For CC1(C)CC[C@@]2(C(=O)O)C(C1)C1=CCC3[C@@]4(C)CC[C@H](O)C(C)(C)C4CC[C@@]3(C)[C@]1(C)C[C@H]2O (stereo partly drawn) the results were SARS PLP yeast 0.2%.
Screening CC1(C)C(=O)CC[C@@]2(C)[C@H]1CC[C@@]1(C)CC3=C(CC[C@@H]12)[C@@]1(C)CCC(=O)C(C)(C)[C@@H]1CC3 returned SARS PLP yeast 1.0%.
`Cn1c2cc(B(O)O)sc2c2cnn(Cc3ccccc3F)c(=O)c21` gave SARS PLP yeast -7.7%.
COc1cc(NC(=O)c2ccc(C)c([N+](=O)[O-])c2)ccc1NC(=O)c1ccco1 was read as SARS PLP yeast -1.8%.
